Screens from PubChem.
nsP2pro inh: blocks chikungunya virus nsP2 protease peptide cleavage; Q8JUX6; FRET peptide cleavage, nsP2pro, fluorescence 1 h; Potency, µM (highest dose often 24.9 µM), for the others: at the highest dose activity change, negative = inhibition, most hits filed as inhibitors; 31,000 compounds, 1.1% hits; AID 1964107; active means well fitted inhibition curve with a large enough effect; inconclusive means small, poorly fitted or top-dose-only effect; inactive means no such curve, though single readings can be large or run the other way; note: nearly all actives have a fitted effect of over 60% in size; a reference inhibitor and vehicle were the controls
Target sequence (Q8JUX6 whole entry, looked up): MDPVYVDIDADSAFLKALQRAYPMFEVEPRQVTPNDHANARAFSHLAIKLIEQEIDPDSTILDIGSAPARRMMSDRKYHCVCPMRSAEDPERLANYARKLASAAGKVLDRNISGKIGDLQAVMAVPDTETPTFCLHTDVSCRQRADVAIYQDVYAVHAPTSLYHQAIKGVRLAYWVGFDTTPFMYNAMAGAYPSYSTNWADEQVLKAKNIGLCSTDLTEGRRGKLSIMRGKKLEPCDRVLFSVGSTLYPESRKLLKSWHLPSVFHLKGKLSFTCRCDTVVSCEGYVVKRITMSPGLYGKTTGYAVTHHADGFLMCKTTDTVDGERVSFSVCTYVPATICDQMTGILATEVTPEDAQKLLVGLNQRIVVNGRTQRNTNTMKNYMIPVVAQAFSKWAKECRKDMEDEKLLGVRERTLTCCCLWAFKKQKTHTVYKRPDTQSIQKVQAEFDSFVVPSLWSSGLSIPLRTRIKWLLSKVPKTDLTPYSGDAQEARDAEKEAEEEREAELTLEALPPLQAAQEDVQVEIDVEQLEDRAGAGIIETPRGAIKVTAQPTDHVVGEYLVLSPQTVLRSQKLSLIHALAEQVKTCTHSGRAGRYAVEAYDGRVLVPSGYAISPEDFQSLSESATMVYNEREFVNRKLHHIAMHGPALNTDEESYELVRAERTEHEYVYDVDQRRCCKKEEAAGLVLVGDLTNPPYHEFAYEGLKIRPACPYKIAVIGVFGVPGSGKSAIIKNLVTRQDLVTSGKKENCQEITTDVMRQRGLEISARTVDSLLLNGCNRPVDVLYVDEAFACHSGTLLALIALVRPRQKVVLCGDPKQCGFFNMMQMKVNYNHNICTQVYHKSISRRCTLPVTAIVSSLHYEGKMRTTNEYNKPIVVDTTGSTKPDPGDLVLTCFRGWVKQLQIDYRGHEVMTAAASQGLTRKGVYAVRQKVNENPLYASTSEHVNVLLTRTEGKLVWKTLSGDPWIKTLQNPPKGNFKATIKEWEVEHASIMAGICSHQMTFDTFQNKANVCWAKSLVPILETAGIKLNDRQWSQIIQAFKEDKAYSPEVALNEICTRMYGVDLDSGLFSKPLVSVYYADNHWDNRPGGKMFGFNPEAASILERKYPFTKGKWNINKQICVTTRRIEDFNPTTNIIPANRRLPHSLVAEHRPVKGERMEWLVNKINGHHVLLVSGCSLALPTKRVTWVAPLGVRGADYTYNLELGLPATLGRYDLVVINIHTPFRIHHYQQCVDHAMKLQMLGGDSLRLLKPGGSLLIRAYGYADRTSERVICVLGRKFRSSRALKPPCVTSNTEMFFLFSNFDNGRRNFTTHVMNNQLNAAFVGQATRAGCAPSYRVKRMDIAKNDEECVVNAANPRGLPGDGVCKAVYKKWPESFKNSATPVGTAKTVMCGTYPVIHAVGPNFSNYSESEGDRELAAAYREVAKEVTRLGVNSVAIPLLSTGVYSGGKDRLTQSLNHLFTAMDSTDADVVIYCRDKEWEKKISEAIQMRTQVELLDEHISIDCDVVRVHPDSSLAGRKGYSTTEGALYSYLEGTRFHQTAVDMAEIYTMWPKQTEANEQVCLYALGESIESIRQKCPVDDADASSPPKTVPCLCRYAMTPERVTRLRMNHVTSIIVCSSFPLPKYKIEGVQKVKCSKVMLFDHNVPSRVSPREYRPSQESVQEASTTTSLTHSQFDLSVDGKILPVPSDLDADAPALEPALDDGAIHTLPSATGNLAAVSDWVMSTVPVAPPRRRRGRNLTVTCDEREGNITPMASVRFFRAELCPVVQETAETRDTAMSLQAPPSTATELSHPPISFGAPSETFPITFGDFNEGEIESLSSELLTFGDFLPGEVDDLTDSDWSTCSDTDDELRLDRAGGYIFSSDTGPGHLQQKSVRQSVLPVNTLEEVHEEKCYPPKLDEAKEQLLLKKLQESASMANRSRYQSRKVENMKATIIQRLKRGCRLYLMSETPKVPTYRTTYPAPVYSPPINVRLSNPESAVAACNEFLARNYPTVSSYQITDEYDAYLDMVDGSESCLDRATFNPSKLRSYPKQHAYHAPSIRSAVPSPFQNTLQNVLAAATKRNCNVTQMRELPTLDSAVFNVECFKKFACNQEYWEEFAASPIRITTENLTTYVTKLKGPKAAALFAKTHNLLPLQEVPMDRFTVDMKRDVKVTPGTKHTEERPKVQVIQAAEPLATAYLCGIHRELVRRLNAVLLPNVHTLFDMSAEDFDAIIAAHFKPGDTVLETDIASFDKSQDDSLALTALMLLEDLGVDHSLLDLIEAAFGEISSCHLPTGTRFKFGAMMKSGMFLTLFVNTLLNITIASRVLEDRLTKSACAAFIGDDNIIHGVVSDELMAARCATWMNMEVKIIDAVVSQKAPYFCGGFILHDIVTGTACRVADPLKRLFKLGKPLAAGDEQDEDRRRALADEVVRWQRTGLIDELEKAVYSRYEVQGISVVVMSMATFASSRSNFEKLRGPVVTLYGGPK
* = called active by the depositor; i = inactive; ? = inconclusive; & = joins results of further samples; ! = not confirmed by another sample; [ ] = another dose, or the depositor's remark. % is set by controls: 0 for no effect and ±100 for the full control effect; potency is the fitted concentration of half-maximal effect. Not all compounds are listed. The share of hits here may be higher or lower than overall.

| molecule | nsP2pro inh |
| --- | --- |
| O[C@@H]1CNC2Cc3c([nH]c4ccccc34)C1C2 (stereo partly specified) | -24% |
| C=C1C(=O)O[C@H]2C3=C(C)CCC[C@]3(C)C(=O)C[C@@H]12 | ? |
| CCOC(=O)C1(C)C=C(Nc2ccc(OC)cc2)C(=O)N1c1ccccc1 (stereo unspecified) | ? |
| CC(C)c1nccn1Cc1cc(C(=O)N(C)Cc2ccccc2Cl)n[nH]1 | 1% |
| COc1cccc(CNC(=O)CN2C(=O)CCc3cc(S(=O)(=O)N4CCOCC4)ccc32)c1 | -28% |
| OC[C@H]1O[C@@H](O[C@@H]2OC=C[C@H]3[C@H](O)[C@@H]4O[C@]4(CO)[C@@H]23)[C@H](O)[C@@H](O)[C@@H]1O | ? |
| Cc1nc2c([nH]1)CCN(C(=O)c1ccc(NC(=O)c3ccccc3-c3ccccc3)cc1)c1ccccc1-2 | 7%&16% |
| CCc1ccccc1NC(=O)c1ccc(F)c(S(=O)(=O)NC2CCCCCC2)c1 | -23% |
| COc1ccc(Cc2ccc(NC(N)=O)cc2)cc1-c1cccc(Cl)c1 | 110%[activator] |
| O=C1CCCC2=C1C(c1[nH]ncc1Cl)NC(=NCc1nccs1)N2 (stereo unspecified) | 2% |
| Cc1ccc(C)c(SC2=NS(=O)(=O)c3cc(C(=O)NCc4ccccc4)ccc32)c1 | -6% |
| CN1CCCN(C(c2ccccc2)c2ccc(Cl)cc2)CC1 (stereo unspecified) | 19% |
| CCN(CC)c1ccc2c(O)c(C=Nc3ccc(CC(=O)O)c(-c4c5c(nc6ccccc46)CCC(C(=O)NN)C5)c3)c(=O)oc2c1 (stereo unspecified) | -28% |
| CC(C)(C)c1ccc(-c2nc(NC(=O)CSc3ncnc4sc5c(c34)CCCC5)ns2)cc1 | -30% |
| Cc1ccccc1N(C)C1CN(Cc2ccc(C#N)cc2)C1 | -13%[39.2 µM] |
| COc1ccc(CNC(=O)c2nc(S(=O)(=O)Cc3ccccc3)ncc2Cl)cc1 | 6.3µM*! |
| Cc1nc(N2CCCCC2)n(CC(=O)Nc2ccc(Br)cc2)c(=O)c1C | 1% |
| Cc1sc2ccn(CC(C)C)c(=O)c2c1C(=O)N1CCCCC1 | -13% |
| O=C(Nc1ccc(S(=O)(=O)Nc2nccs2)cc1)c1ccnc2ccccc12 | -16% |
| Cc1cc(C)nc(NC(=S)N2CCN(c3cccc(Cl)c3Cl)CC2)c1 | i |
| O=C(COc1ccccc1Cl)Nc1ccc2oc(-c3ccccc3F)nc2c1 | -11% |
| Cc1ccc(O[C@H]2COCC[C@H]2NC(=O)c2ccc(-c3ccn[nH]3)cc2)cn1 | 0% |
| CC(=O)N1CCN(CC[C@H]2CN(C(=O)c3ccnc(Cl)c3)CC[C@H]2CC(=O)O)CC1 | -11% |
| CCOC(=O)C1=CN(CC(=O)Nc2ccccc2C(F)(F)F)S(=O)(=O)N=C1C | -7% |
| CN(C)[C@@H]1C(=O)C(C(N)=O)=C(O)[C@@]2(O)C(=O)C3=C(O)c4c(O)ccc(Cl)c4[C@@H](O)[C@H]3C[C@@H]12 | -3% |
| CCNC(=O)C1CCN(S(=O)(=O)c2ccc3c(c2)CCCN3C(C)=O)CC1 | -25% |
| C[S+](=O)([O-])CCn1ncc2cc(OCc3cccc(-c4cccc(F)c4)c3)ccc21 | -8%[39.2 µM] |
| CCN(c1ccccc1)S(=O)(=O)c1ccc(NC(=O)c2nc(SC)ncc2Cl)cc1 | 55%[activator] |
| CN(C(=O)c1ccc(Cl)nc1)C1CCCc2ccccc21 (stereo unspecified) | -14%[39.2 µM] |
| Cc1ccc(CN2CCN(CC(=O)NCc3ccccc3Cl)C2=O)cc1 | -25% |
| CC(=O)N[C@@H](CCCN=C(N)N)C(=O)N[C@H]1CSSC[C@@H](C(N)=O)NC(=O)[C@H](Cc2c[nH]c3ccccc23)NC(=O)[C@H](CCCN=C(N)N)NC(=O)[C@@H](Cc2ccccc2)NC(=O)[C@H](Cc2cnc[nH]2)NC(=O)[C@@H](C)NC1=O | 224%[activator] |
| Cc1cc(C)c2oc(-c3ccc(Cl)c(NC(=O)c4cccs4)c3)nc2c1 | -9% |
| CC(=O)O[C@H]1C[C@@H](C)O[C@H]2O[C@@H]3CC4CC[C@@H]5C(CC[C@]6(C)[C@@H](C7=CC(=O)OC7)CC[C@]56O)[C@@]4(C=O)C[C@H]3O[C@]21O (stereo partly specified) | 4%[10 µM] |
| N#Cc1nc(NCC(F)F)c2ncn(-c3cccc(Cl)c3)c2n1 | i |
| O=C(Nc1cc(C(F)(F)F)cc(C(F)(F)F)c1)Nc1nnc(-c2ccncc2)s1 | -4% |
| O=C1NC2(CCN(C(=O)c3ccc4c(c3)OCO4)C2)Oc2ccccc21 (stereo unspecified) | -7% |
| C=C1CC[C@@H](O)[C@]2(C)C[C@H]3OC(=O)C(=C)[C@H]3CC12 (stereo partly specified) | ? |
| C=CCOc1c(OC)ccc2c1CN(Cc1ccco1)C(=O)CCN2CC(O)COCc1ccco1 (stereo unspecified) | ? |
| Cn1ccc(C(=O)NCc2nnc3n2C(C(=O)NCc2ccc(F)cc2)CC3)n1 (stereo unspecified) | -5% |
| Cc1c(Cl)cccc1NC(=O)N1CCC(CN2CCCC2)CC1 | -22% |
| CCCCCCCCCCCCCCCC[N+](C)(C)CCN(Cc1ccc(OC)cc1)c1ncccn1 | 58%[activator] |
| Cc1ccc(OCCn2c(CCNC(=O)OC(C)(C)C)nc3ccccc32)cc1 | -8% |
| CC(NC(=O)c1ccc(N2Cc3ccccc3Oc3ncccc32)s1)c1ccccc1 (stereo unspecified) | ? |
| Cc1noc(C)c1S(=O)(=O)NCCc1ncc(C)n1C1CCC1 | 3% |
| CN(C(=O)C(c1ccccc1)c1ccccc1)[C@H](CN1CC[C@H](O)C1)c1ccccc1 | -2% |
| N#Cc1ccc(C[C@H](C(=O)O)N2C(=O)c3ccc(C(=O)O)cc3C2=O)cc1 | -16% |
| N#Cc1ccc(S(=O)(=O)N2CCC(C3CCNC3)CC2)cc1 (stereo unspecified) | 3% |
| COc1cccc(-c2cccc(C(=O)N3CCN(C(C)=O)CC3)c2)c1 | 5%[39.2 µM] |
| NCCC(O)(P(=O)(O)O)P(=O)(O)O | ? |
| O=C1Nc2ccccc2/C1=C\c1ccc(C(=O)O)cc1 | i |
| COc1ccc(N2C(=O)CSC23C(=O)N(CC(N)=O)c2ccccc23)cc1 (stereo unspecified) | -13% |
| COCc1nncn1C1CCN(S(=O)(=O)c2ccc(Br)cc2)CC1 | 5% |
| COc1cc(NC(=O)C(OC(=O)CNC(=O)c2ccccc2)c2ccccc2)cc(C(F)(F)F)c1 (stereo unspecified) | i |
| OC(CCN1CCCCC1)(c1ccccc1)C1CCCC1 (stereo unspecified) | -6% |
| COc1ccc2nc(-c3ccc(OC)c(OC)c3)sc2c1 | i |
| O=C(O)c1ccc(-c2nnc3ccc(NC(=O)C4CCC4)cn23)cc1 | i |
| CC1(C)CC[C@]2(C(=O)O)[C@H](O)C[C@]3(C)C(=CCC4[C@@]5(C)CC[C@H](O[C@@H]6OC[C@@H](O)[C@H](O)[C@H]6O)[C@@](C)(C(=O)O)C5CC[C@]43C)[C@@H]2C1 (stereo partly specified) | -5%[10 µM] |
| O=C(Nc1nnc(S(=O)(=O)N2CCCCCC2)s1)c1cccc(Br)c1 | -8% |
| COC[C@@H]1CN(S(=O)(=O)c2ccccc2C)C[C@H]1c1nc(C)no1 | i |
| COc1ccccc1N1CCN(c2c(CN3CCCC3)c(=O)oc3ccccc23)CC1 | -17% |

Remaining list, next part:
| molecule | nsP2pro inh |
| --- | --- |
| Cc1ccc(CNC(=O)c2c[nH]c3ccc(S(=O)(=O)Nc4ccc(C(C)C)cc4)cc3c2=O)cc1 | 18% |
| Fc1cccc(F)c1-c1nc(-c2ccncc2)no1 | -6% |
| COc1cnc(-n2cnc(C)n2)c2c1c(C(=O)C(=O)N1CCN(C(=O)c3ccccc3)CC1)cn2COP(=O)(O)O | ? |
| O=C(NCc1ccc(S(=O)(=O)c2cc(F)cc(F)c2)cc1)c1ccc2nccn2c1 | -4%&2% |
| COCCCNC(=O)CN1CCCc2nc(-c3ccncc3)ncc2C1=O | -2% |
| CN(C(=O)CCc1nc2ccccc2[nH]1)C1CCc2nn(C)c(=O)n2CC1 (stereo unspecified) | i |
| COC(=O)N1CC(CN2C(=O)c3c(c(C)nn3-c3ccccc3)C2C)C1 (stereo unspecified) | -1% |
| CCC(C)NC(=O)CCC(=O)N1Cc2ccccc2Oc2ncccc21 (stereo unspecified) | -20% |
| N#Cc1ccc(S(=O)(=O)N2CCC(Oc3cccc(C(F)(F)F)c3)CC2)cc1 | -22% |
| CC1CCc2noc(NC(=O)c3ccccc3[N+](=O)[O-])c2C1 (stereo unspecified) | -9% |
| Cc1ccc(C2(C(=O)N3CCC(n4nc(-c5ccccc5)oc4=O)CC3)CC2)cc1 | -5% |
| CCCCCn1cc(C(=O)C2C(C)(C)C2(C)C)c2ccccc21 | ? |
| O=C(NC1CC(=O)N(c2ccc(Cl)cc2)C1)C1CCCCC1 (stereo unspecified) | -22% |
| COc1cc2nc(Nc3ccccc3)nc(NC3CC3)c2cc1OC | 3% |
| NCCc1noc(-c2ccccc2)n1 | -11% |
| CCn1cc(CN2CCN(C(=O)COc3ccccc3)CC2)ccc1=O | ? |
| CC(=O)OC1C(CO)OC(O[C@H]2[C@H](OC(=O)[C@]34CCC(C)(C)C[C@H]3C3=CCC5[C@@]6(C)CC[C@H](O[C@@H]7O[C@H](C(=O)O)[C@@H](O)[C@H](O[C@@H]8OC[C@@H](O)[C@H](O)[C@H]8O)[C@H]7O[C@@H]7O[C@H](CO)[C@H](O)[C@H](O)[C@H]7O)[C@@](C)(C=O)C6CC[C@@]5(C)[C@]3(C)C[C@H]4O)O[C@H](C)[C@H](OC3OC(C)C(OC4OCC(O)C(O)C4O)C(O)C3O)[C@@H]2O)C(O)C1O (stereo partly specified) | -13%[5.1 µM] |
| COP(=S)(OC)Oc1cc(Cl)c(Cl)cc1Cl | 8% |
| N[C@H](Cc1c[nH]c2ccccc12)C(=O)O | ? |
| Cc1ccc2oc(C(=O)Nc3nnc(CC(C)C)s3)cc(=O)c2c1 | -12% |
| O=C(c1ccc2c(=O)n(CCc3ccccc3)c(=O)[nH]c2c1)N1CCN(c2ccc(F)cc2)CC1 | -17% |
| CCOc1cc(C(=O)OCc2cc(=O)n3nc(CC)sc3n2)cc(OCC)c1OCC | 4% |
| CCOC(=O)Cn1c(=N)n(Cc2ccc(C(C)(C)C)cc2)c2ccccc21 | -1% |
| O=C(c1ccccc1-c1ncc[nH]1)N1CCOC(c2ccc(Cl)cc2)C1 (stereo unspecified) | 17% |

Reprinted from the part before: 5 entries, then new ones.
| molecule | nsP2pro inh |
| --- | --- |
| Cc1ccc2oc(C(=O)Nc3nnc(CC(C)C)s3)cc(=O)c2c1 | -12% |
| O=C(c1ccc2c(=O)n(CCc3ccccc3)c(=O)[nH]c2c1)N1CCN(c2ccc(F)cc2)CC1 | -17% |
| CCOc1cc(C(=O)OCc2cc(=O)n3nc(CC)sc3n2)cc(OCC)c1OCC | 4% |
| CCOC(=O)Cn1c(=N)n(Cc2ccc(C(C)(C)C)cc2)c2ccccc21 | -1% |
| O=C(c1ccccc1-c1ncc[nH]1)N1CCOC(c2ccc(Cl)cc2)C1 (stereo unspecified) | 17% |
| CC(=O)N1CCN(Cc2ccc([C@H](C)Nc3nccc(N4C(=O)OC[C@@H]4C(C)C)n3)cc2)CC1 | ? |
| Cc1cccc(C)c1OCC(=O)Nc1c(C(=O)c2ccccc2)oc2ccccc12 | -14% |
| COc1ccccc1CNC(=O)CN(c1ccccc1OC)S(C)(=O)=O | -13% |
| O=c1c2cc3c(cc2nc2sc(Nc4ccc(F)cc4F)nn12)OCO3 | -17% |
| CCCCOc1nnc(-c2ccc(OCC)cc2)c2ccccc12 | -18% |
| C[C@@H](O[C@H]1OCCN(Cc2n[nH]nc2CN(C)C)[C@H]1c1ccc(F)cc1)c1cc(C(F)(F)F)cc(C(F)(F)F)c1 | 95%[activator] |
| O=C(Nc1ccccc1Cl)c1cnc2ccc(C3CCNCC3)cn12 | 39%[activator] |
| Cc1cccc(N2CCN(C(=O)CCCCn3c(=O)[nH]c4ccsc4c3=O)CC2)c1C | -14% |
| O=C(O)c1ccc2c(c1)C(=O)N([C@H](Cc1cccc3ccccc13)C(=O)O)C2=O | -14% |
| O=C(Nc1ccc(F)cc1F)c1c2c(nc3ccccc13)C(=O)N(C1CCCCC1)C2 | -24% |
| COCCN1C(=O)N(CCCc2cccnc2)C(=O)C12CCN(C/C=C/c1ccc(OC)cc1)CC2 | i |
| CCCCN(CCCC)C(=S)[S-].CCCCN(CCCC)C(=S)[S-].[Zn+2] | 0.56µM* |
| CN(C)C(=O)CC1CCOC2(CCNCC2)C1 (stereo unspecified) | -13% |
| CCN1C(=O)CCc2cc(NS(=O)(=O)c3cn(C)c(C)n3)ccc21 | -2% |
| Cc1ccc(O)c(C(CC(=O)NCC2(c3ccccc3)CCCC2)c2ccccc2)c1 (stereo unspecified) | -15% |
| COc1ccc(CNCc2c(C(=O)O)c(C)n(Cc3ccc(Cl)cc3)c2C)c(OC)c1 | -10% |
| C=CCc1ccc(O)c(OC)c1 | -20%&-15% |
| Cc1ccc(-c2nnc3ccccc3c2C(=O)Nc2ccccc2F)cc1 | -17% |
| CCOc1cccc(CN2CCc3c(c(CN(C(C)=O)c4ccccc4)nn3C)C2)c1O | 0% |
| CC1(C)CC[C@]2(C(=O)O[C@@H]3O[C@H](CO[C@@H]4O[C@H](CO)[C@@H](O)[C@H](O)[C@H]4O[C@@H]4O[C@H](CO)[C@H](O)[C@H](O)[C@H]4O)[C@@H](O)[C@H](O[C@@H]4O[C@H](CO)[C@@H](O)[C@H](O)[C@H]4O)[C@H]3O)CC[C@]3(C)C(=CCC4[C@@]5(C)CC[C@H](O[C@@H]6OC[C@@H](O)[C@H](O)[C@H]6O)[C@@](C)(C(=O)O)C5CC[C@]43C)[C@@H]2C1 (stereo partly specified) | 24%[5.1 µM] |
